MARV entry inh: qHTS for inhibitors of binding or entry into cells for Marburg Virus | Marburg virus pseudotyped entry inhibition, cell reporter; control for the full effect not named in the record; about a third of the inactives were read at about 46 µM | Potency, µM (series often up to 37.8 µM), for the others: top-dose activity change, negative = inhibition, usual class: inhibitors | 1.8% of 300,000 active; active = well fitted inhibition curve with a large enough effect; inconclusive = small, poorly fitted or top-dose-only effect, or effect the other way; inactive = flat fitted curve, though single readings scatter; tested in HEK293 cells; about a fifth of its hits are not listed in these tables; also: % is scaled to controls: 0 for no effect and ±100 for the full control effect; luciferase read-out
LASV entry inh: qHTS for Inhibitors of binding or entry into cells for Lassa Virus; Potency, µM (series often up to 37.9 µM), inactives show top-dose activity change, negative = inhibition, hits mostly inhibitors; AID 540256, 2011; Lassa virus pseudotype entry inhibition, cell reporter; control for the full effect not named in the record; 1.2% of 300,000 active; active means well fitted inhibition curve with a large enough effect; inconclusive means small, poorly fitted or top-dose-only effect, or effect the other way; inactive means flat fitted curve, though single readings scatter; tested in HEK293 cells; also: % is scaled to controls: 0 for no effect and ±100 for the full control effect; nearly all actives have a fitted effect of over 50% in size; luciferase read-out
Cruzain noTriton: qHTS Assay for Promiscuous and Specific Inhibitors of Cruzain (without detergent); Cruzipain (Trypanosoma cruzi), P25779; purified cruzain, Z-FR-AMC fluorescence, no detergent; Potency, µM, inactives show max response, negative = inhibition, hits mostly inhibitors; 2.3% of 200,000 active;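 also: plate controls were enzyme without inhibitor for no effect and buffer without enzyme for full effect; nearly all actives have a fitted effect of over 40% in size; top concentration of the series not given in the record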
Target sequence (P25779 123-467 limits assumed): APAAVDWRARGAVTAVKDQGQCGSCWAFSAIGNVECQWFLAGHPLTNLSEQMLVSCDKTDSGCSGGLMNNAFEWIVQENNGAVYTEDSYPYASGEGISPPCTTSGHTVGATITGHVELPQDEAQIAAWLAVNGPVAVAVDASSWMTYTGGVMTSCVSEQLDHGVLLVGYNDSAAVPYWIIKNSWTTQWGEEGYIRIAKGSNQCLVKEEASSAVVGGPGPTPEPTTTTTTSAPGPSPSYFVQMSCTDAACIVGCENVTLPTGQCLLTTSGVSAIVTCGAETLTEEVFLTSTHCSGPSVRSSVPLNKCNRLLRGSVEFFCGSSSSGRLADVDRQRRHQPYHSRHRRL
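Detergent-free condition (0.00005% Triton X-100) in acetate buffer pH 5.5 with DTT. 1.5 nM enzyme and compound were pre-mixed 15 min, then 2 uM Z-FR-AMC substrate added; reaction progress from fluorescence change between first and third reads (60 s).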
NS1 function inh: qHTS Assay for Inhibitors of Influenza NS1 Protein Function. S. cerevisiae slowed by influenza A NS1, growth recovery by OD600. Potency, µM (doses to about 46.1 µM), inactives show top-dose activity, positive = more growth. 0.4% of 270,000 active. AID 2326, 2010; active means well fitted rising curve with a large enough effect; inconclusive means small, poorly fitted or top-dose-only effect; inactive means no such curve, though single readings can be large or run the other way; also: nearly all actives have a fitted effect of over 50% in size
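Recovery from NS1-induced slow growth read by OD600 in budding yeast switched to galactose assay medium (pH 6.0, -URA) at 1:100 dilution. Compound 23 nl per well; the matching strain lacking NS1 serves as control.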
RE007 growth inh: qHTS Assay for Inhibitors of the HIV-1 protein Vpr; S. pombe RE007 Vpr strain, BacTiter-Glo ATP luminescence, 24 h; control for the full effect not named in the record; 0.21% of 360,000 active; Potency, µM (titrated, usually from 92.2 µM), without a hit: at the highest dose activity change, negative = less growth; active = well fitted falling curve with a large enough effect; inconclusive = small, poorly fitted or top-dose-only effect; inactive = no such curve, though single readings can be large or run the other way;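 also: % is scaled to controls: 0 for no effect and ±100 for the full control effect; nearly all actives have a fitted effect of over 50% in size; the assay follows cell death caused by Vpr and the record does not say whether a fall means rescue or toxicity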
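Fission yeast strain RE007, carrying one chromosomally integrated HIV-1 vpr copy, was seeded at OD 0.01 in PMG+AL medium with 23 nL pinned compound. After 24 h at 30 °C and 99% humidity, viability was read by BacTiter-Glo luminescence.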
StopGo reporter: High Throughput Screening for Foot and Mouth Disease Virus Antivirals; Potency, µM (top dose mostly 57.9 µM), inactives show at the highest dose signal change, negative = less light; 1.2% of 410,000 active; human cells with a luciferase reporter of 2A StopGo recoding; control for the full effect not named in the record; active = well fitted falling curve with a large enough effect; inconclusive = small, poorly fitted or top-dose-only effect; inactive = no such curve, though single readings can be large or run the other way; tested in HEK293T cells; also: % is scaled to controls: 0 for no effect and ±100 for the full control effect; nearly all actives have a fitted effect of over 45% in size; luciferase light after 4 h
SARS PLpro yeast: qHTS of Yeast-based Assay for SARS-CoV PLP; S. cerevisiae expressing SARS-CoV PLpro, growth rescue; control for the full effect not named in the record; Potency, µM (doses to about 32.9 µM), for the others: at the highest dose activity, positive = growth rescue; 0.19% of 330,000 active; AID 485353, 2010; active means well fitted rising curve with a large enough effect; inconclusive means small, poorly fitted or top-dose-only effect; inactive means no such curve, though single readings can be large or run the other way; also: 0% is about no effect; nearly all actives have a fitted effect of over 55% in size; growth read by luminescence after 48 h
Cruzain inh Det: qHTS Assay for Promiscuous and Specific Inhibitors of Cruzain (with detergent); purified cruzain, Z-FR-AMC fluorescence, 0.01% Triton; Cruzipain (Trypanosoma cruzi), P25779; Potency, µM, for the others: max response, negative = inhibition, hits mostly inhibitors; AID 1478, 2009; 0.43% of 200,000 active;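 also: plate controls were neutral wells for no effect and buffer without enzyme for full effect; nearly all actives have a fitted effect of over 40% in size; top concentration of the series not given in the record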
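Steps: dispense cruzain (1.5 nM final) in acetate buffer pH 5.5 with DTT and 0.01% Triton X-100; pin-transfer compounds; incubate 15 min RT; add Z-FR-AMC (2 uM final); read fluorescence every 30 s, using the 60 s intensity change.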
The depositor's hits bear a star; ? = inconclusive; . = no result given; & = joins results of further samples; [ ] = another dose, or the depositor's remark. Unless noted, calls follow the shape of the dose curve; as a rule, active = well fitted curve in the direction sought with a large enough effect; inconclusive = small, poorly fitted or top-dose-only effect, or another doubt; inactive = no such curve, though single readings can be large; an effect the other way counts as inactive or inconclusive. Potency is read from the fitted curve at half-maximal effect.

SMILES	MARV entry inh	LASV entry inh	Cruzain noTriton	NS1 function inh	RE007 growth inh	StopGo reporter	SARS PLpro yeast	Cruzain inh Det
COc1ccc2cc(C(c3nnnn3CCc3ccccc3)N3CCCC(C)C3)c(=O)[nH]c2c1 (configuration not stated)	?	-13%	-12%	-24%	-2%	.	-8%	-12%
CCCCOc1ccc(CSC(=N)N)cc1Cl	?	5%	.	2%	2%	?	0%	.
COc1ccc(OC)c(N2C(=O)/C(=C/c3ccco3)C(=O)NC2=S)c1	10µM*	-8%	.	10%	-2%	-28%	0%	.
O=C(Cc1cccs1)Nc1cccc(-c2nc3ccccc3o2)c1	20%	-23%	-27%	-18%	11%	41%[activator]	0%	-3.7%
CCOc1ccc(NC(=O)CSc2nc3ccccc3nc2N2CC(C)OC(C)C2)cc1 (configuration not stated)	.	.	.	21%	0%	0%	4%	.
O=C1c2ccccc2NC(c2cccnc2)N1c1ccccc1F (configuration not stated)	2%	6%	0%	20%	0%	?	3%	-2.9%
COc1ccc(CNC(=O)c2cnc3cc(C)ccn3c2=O)cc1	1%[46.1 µM]	.	-5%&4%	10%	5%	9%&15%	-5%	-2.8%&-8.9%
COc1ccc(NC(=O)c2nn(C)c(C(=O)Nc3ccc(OC)cc3)c2[N+](=O)[O-])cc1	.	.	.	11%	4%	-6%	-1%	.
Cc1cc(=O)[nH]c2c1c(C)nn2C(C)(C)C	-42%[46.1 µM]	?	.	5%	-9%	-4%	0%	.
COc1ccc(S(=O)(=O)N2CCCCC2)cc1NC(=O)c1cc([N+](=O)[O-])ccc1N1CCOCC1	-14%	-29%	.	.	25%	13%	3%	.
COc1cccc(OC)c1C(=O)Nc1nnc(C(C)C)s1	0%	16%	-13%	4µM*	-10%	.	5%	0.0%
Cc1ccc(OP(=O)(Nc2cccc(C)c2)Oc2ccc(C)cc2)cc1	.	.	.	2%	16%	-6%	-5%	.
O=C(CCCn1c(=S)[nH]c2cc3c(cc2c1=O)OCO3)N1CCN(c2ccccn2)CC1	-21%&-21%	?	3%	-6%	8%	-29%	11%	-4.5%
COC(=O)c1cccc(S(=O)(=O)N2CCCCC2)c1	6%	-19%	6%	9%	7%	16%	4%	5.6%
CCCN1C(=O)c2ccccc2NC1c1ccc(Cl)cc1 (configuration not stated)	.	.	.	-4%	9%	-17%	0%	.
Cc1cccc(C)c1NC(=S)N1CCC(N(C)CC2CCCO2)CC1 (configuration not stated)	18%	13%	6%	3%	3%	-1%	-9%	6.6%
CCOc1ccc(C(c2c(NC(=O)c3ccccc3)sc(C)c2C)N2CCN(C)CC2)cc1 (configuration not stated)	?	?	6%	25%	43%	-1%	-5%	-13%
Cc1cc(O)c(NC(=S)NC(=O)c2ccc(-c3ccc(Cl)cc3)o2)cc1C	0%	2%	16µM*	6%	-2%	0%	-4%	4.5%
CC(C)CCNC(=O)C(Cc1ccccc1)NS(=O)(=O)c1ccc2c(c1)c(=O)n(C)c(=O)n2C (configuration not stated)	-7%[46.1 µM]	23%[46.1 µM]	-10%&-8%	20%	-17%	-7%&-19%	-3%	-1.9%&3.9%
Cc1ccccc1NC(=O)c1cccc2nccnc12	-14%	24%	5%	-66%	2%	22%	8%	-5.5%

9 successive compounds from above, for reference:
SMILES	MARV entry inh	LASV entry inh	Cruzain noTriton	NS1 function inh	RE007 growth inh	StopGo reporter	SARS PLpro yeast	Cruzain inh Det
Cc1ccc(OP(=O)(Nc2cccc(C)c2)Oc2ccc(C)cc2)cc1	.	.	.	2%	16%	-6%	-5%	.
O=C(CCCn1c(=S)[nH]c2cc3c(cc2c1=O)OCO3)N1CCN(c2ccccn2)CC1	-21%&-21%	?	3%	-6%	8%	-29%	11%	-4.5%
COC(=O)c1cccc(S(=O)(=O)N2CCCCC2)c1	6%	-19%	6%	9%	7%	16%	4%	5.6%
CCCN1C(=O)c2ccccc2NC1c1ccc(Cl)cc1 (configuration not stated)	.	.	.	-4%	9%	-17%	0%	.
Cc1cccc(C)c1NC(=S)N1CCC(N(C)CC2CCCO2)CC1 (configuration not stated)	18%	13%	6%	3%	3%	-1%	-9%	6.6%
CCOc1ccc(C(c2c(NC(=O)c3ccccc3)sc(C)c2C)N2CCN(C)CC2)cc1 (configuration not stated)	?	?	6%	25%	43%	-1%	-5%	-13%
Cc1cc(O)c(NC(=S)NC(=O)c2ccc(-c3ccc(Cl)cc3)o2)cc1C	0%	2%	16µM*	6%	-2%	0%	-4%	4.5%
CC(C)CCNC(=O)C(Cc1ccccc1)NS(=O)(=O)c1ccc2c(c1)c(=O)n(C)c(=O)n2C (configuration not stated)	-7%[46.1 µM]	23%[46.1 µM]	-10%&-8%	20%	-17%	-7%&-19%	-3%	-1.9%&3.9%
Cc1ccccc1NC(=O)c1cccc2nccnc12	-14%	24%	5%	-66%	2%	22%	8%	-5.5%

Carrying on.
SMILES	MARV entry inh	LASV entry inh	Cruzain noTriton	NS1 function inh	RE007 growth inh	StopGo reporter	SARS PLpro yeast	Cruzain inh Det
Cc1ccc(S(=O)(=O)N(C)C)cc1NC(=O)COC(=O)CCCOc1ccccc1	.	.	.	-4%	-13%	-2%	-6%	.
COc1cc(/C=C(/Sc2nnc(-c3ccc(F)cc3)o2)C(=O)O)ccc1OC(F)F	13%[46.1 µM]	-6%[46.1 µM]	.	.	-4%	-17%	0%	.
COc1ccccc1NC(=O)NC1(C(=O)N2CCC(O)CC2)CCCCC1	1%	14%	-3%	-4%	3%	1%	-1%	0.1%
COC(=NC1CCCC1)C(O)c1c[nH]c2ccccc12 (configuration not stated)	34%	18%	-18%	-2%	-11%	5%	-15%	0.2%
Cc1ccc(-c2nnn(CC(=O)N(CCN3CCOCC3)C(C(=O)NC(C)(C)C)c3ccc(C)o3)n2)cc1 (configuration not stated)	?	-1%	.	0%	-3%	66%[activator]	-1%	.
COc1cccc(CNC(=O)Cn2c(=O)ccc3cc(S(=O)(=O)N4CCCC4)ccc32)c1	.	23%[46.1 µM]	2%	.	.	0%	.	-1.6%
COc1ccc(Nc2cc(C(=O)NCCCN(C)Cc3ccccc3)c3ccccc3n2)c(OC)c1	.	?	2%	.	.	-16%	.	-7.6%
CC(=O)Oc1ccccc1C1OCCN1C(C)=O (configuration not stated)	2%	0%	0%	3%[9.22 µM]	-20%	-7%	-3%	3.0%
COc1ccc(C2(c3ccc(OC)cc3)NC(=O)NC2=O)cc1	-16%[46.1 µM]	?	.	0%	8%	5%	1%	.
Cc1ccc2c(=O)cc(C(=O)N(Cc3ccccc3Cl)C3CCS(=O)(=O)C3)oc2c1 (configuration not stated)	?	-4%[46.1 µM]	1%	.	.	-18%	.	-5.2%
COc1ccc(/C=N/Nc2ncc(C(F)(F)F)cc2Cl)c(OC)c1OC	?	5%	27%	-1%	-2%	-29%	?	-8.9%
Cc1ccc(SCc2nc(N)nc(Nc3ccccc3C)n2)c(C)c1	-1%	-16%	-3%	-49%	14%	27%	-10%	-1.6%
C=CCC1(CC=C)CCCN1C(=O)c1cc(COc2ccc(C)nc2)on1	.	.	.	-21%	-9%	?	1%	.
COC(=O)C1=C(N)Oc2c(oc(CO)cc2=O)C1c1ccc(F)cc1 (configuration not stated)	-4%	-2%	.	6%	-7%	-8%	0%	.
CCOC(=O)C(C(=O)Nc1ccccc1)C1CCCCC1 (configuration not stated)	9%[46.1 µM]	2%	6%	0%	-4%	-8%	0%	2.7%
CC(=O)c1cccc(-n2c(CCC(=O)O)ccc2-c2cccs2)c1	11%	4%	-5%	-8%	-23%	.	-14%	-3.9%
CCOC(=O)N1CCN(C(=O)CSc2nc(=O)n3cccc(C)c3n2)CC1	15%	2%	.	.	-7%	-28%	1%	.
CCCNC(=O)CSc1nnc(C)s1	4%	4%	5%	3%	4%	71%[activator]	2%	-0.3%
O=C(NC1CC1)c1ccc(-c2nc3ccccc3s2)s1	1.4µM*	1.3µM*	7%	-116%	-25%	?	-21%	0.5%
CC(=O)c1ccccc1NC(=O)CSCc1nc2sc(C)c(C)c2c(=O)[nH]1	11%	4%	.	.	-2%	-8%	-1%	.
O=C(CCC(=O)n1ncc2ccccc21)N1CCCCC1	.	.	.	-4%	-2%	0%	-2%	.
[2H]c1c([2H])c([2H])c(C(=O)c2sc(N3CCCCCC3)nc2-c2ccccc2)c([2H])c1[2H]	?	-11%	-9%	5%	5%	?	-23%	-5.6%
Cc1ccccc1NS(=O)(=O)c1cc2c3c(c1)CC(=O)N3CCC2	.	.	.	13%	2%	20%	-1%	.
COC(=O)c1ccc2nc(-c3ccc(S(C)(=O)=O)cc3)cn2c1	?	3%	.	.	-15%	35%[activator]	0%	.
CSc1ccc(-c2c(C#N)c(N)nc3c2c(C)nn3-c2ccccc2)cc1	?	-25%	?	5%	18%	?	-3%	-9.5%
COC(=O)c1ccc(CNC(=O)/C=C/c2cc([N+](=O)[O-])ccc2OC(F)F)cc1	?	-6%	-5%	0%	0%[3.69 µM]	-10%	-3%	1.6%
COC(=O)CCC(=O)Nc1ccc(OC)cc1	-8%[46.1 µM]	11%	12%	7%	-3%	-12%	5%	3.8%
COc1cc2c(cc1Cl)/C(=C\CCN(C)C)c1ccccc1S2	?	?	-5%	-14%	1%	-21%	-15%	-11%
Cc1ccc(S(=O)(=O)Oc2ccccc2/C=N/O)cc1	.	.	.	-5%	5%	4%	-1%	.
O=P(C(Cl)Cl)(N1CCOCC1)N1CCOCC1	19%[46.1 µM]	0%	.	6%	7%	-6%	-7%	.
O=C1C2C3C=CC(C3)C2C(=O)N1Cc1cccnc1 (configuration not stated)	10%	13%	2%	-1%	0%	-13%	-1%	6.4%
O=C(O)c1cc(NN=Nc2cccc([N+](=O)[O-])c2)cc([N+](=O)[O-])c1	.	.	.	2%	-18%	-13%	0%	.

Compound activity: PubChem BioAssay, National Center for Advancing Translational Sciences (NCATS)
